Bioassay records as filed in PubChem BioAssay.
Choline anaer gr: inhibitors of anaerobic choline-dependent gram-negative bacterial growth. calls only. 0.2% of 55,000 active. Gram-negative bacterium anaerobic choline minimal medium, absorbance growth; stronger effect = lower value; many inactives read as strong as hits in the columns shown;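 active = growth z-score on choline under -2 at 7 or 20 h with little or no fall on glycerol, limits in tiers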;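 also: stock transfer was 300 nL into about 50 µL; the organism is E. coli; final concentration not given here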
Choline anaer gr early: also measured in Choline anaer gr; calls as there; z-score; measured here: choline growth z-score, timepoint 1;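 score of optical density at 7 h as mean of two plates; lower means less growth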
The depositor's hits bear a star; i = inactive; & = joins results of further samples.

The line under a structure holds: Choline anaer gr | Choline anaer gr early
- Cc1cc2nc(CSc3nnc(NC(=O)CC(C)C)s3)cc(=O)n2o1
  i | 0.65
- O=S(=O)(NCCc1n[nH]c(Cc2cccc(F)c2)n1)c1cc(F)ccc1F
  i | 0.1
- c1ccc(-n2c(COCc3nc4cccnc4n3-c3ccccc3)nc3cccnc32)cc1
  i | 0.15
- CC(C)OC(=O)c1cc2ccsc2n1CC(=O)NC1CCCCC1
  i | 0.93
- Cc1ccc(NC(=O)Nc2cccc(CCc3nc4ccccc4n3C)c2)cc1C
  i | 1.7
- CCC(NC(=O)c1ccc2c(c1)OCCO2)c1ccc2c(c1)OCCCO2 (stereo not given)
  i | -0.46
- CC(C)Cn1c(=O)c2cc(F)ccc2n2c(SCC(N)=O)nnc12
  i | -0.03
- CCN(CC)S(=O)(=O)c1ccc(-c2nc(C#N)c(NC)o2)cc1
  i | 0.44
- Fc1ccc(C2CCCN2Cc2ccc(Br)cc2)cc1 (stereo not given)
  i | 0.38
- Cc1cc(NC(=O)CCc2nc(CSc3nc4ccccc4[nH]3)no2)no1
  i | -1.61
- CCOC(=O)c1c(NC(=O)COc2ccccc2C)sc(C(=O)N(CC)CC)c1C
  i | 0.78
- Cc1ccc(-c2ccc(Nc3cc(F)ccc3F)nn2)cc1S(=O)(=O)N1CCCC1
  i | 1.06
- Cc1ccc(-c2nc(CSCC(=O)NC(C)(C)C)no2)cc1
  i | -0.66
- COCCCNC(=O)c1cc(-c2ccc(C)cc2)nc2n[nH]c(-c3ccc(C)cc3)c12
  i | -1.69
- CC(C)CCNC(=O)N1CCC2(C1)C(=O)Nc1ccccc12 (stereo not given)
  i | -2.13
- N#Cc1nc(-c2ccc(S(=O)(=O)N3CCCCC3)cc2)oc1NC1CCCCC1
  i | 0.14
- O=S(=O)(NC1CC1)c1ccc(-c2cnc(C3CCCC3)o2)s1
  i | -1.09
- Cn1cnc(S(=O)(=O)N2CCCC(C(=O)NCCCc3ccccc3)C2)c1 (stereo not given)
  i | 0.03
- O=C(Nc1cc(F)cc(F)c1)c1ccc(Nc2ccnc(-c3ccc(F)cc3)n2)cc1
  i | -0.25
- CCc1cc(C2CCCN2S(=O)(=O)c2ccc(Br)s2)on1 (stereo not given)
  i | 0.78
- COc1ccc(NC2=NC(c3ccc(OC)cc3)n3c(nc(C)cc3=O)N2)cc1 (stereo not given)
  i | -0.06
- COc1ccc(C2C(C(=O)N3CCC(Cc4ccccc4)CC3)CCC(=O)N2c2ccc(OC)cc2)cc1 (stereo not given)
  i | 1.19
- CCc1cccc(C)c1NC(=O)CSc1n[nH]c(-c2ccc(OC)cc2)n1
  i | 0.88
- O=c1c2ccccc2ncn1Cc1noc(-c2cnccn2)n1
  i | -0.13
- CCCNC(=O)c1ccc(CN2CC(=O)N3CCCCC3C2=O)cc1 (stereo not given)
  i | 0.21
- Cc1nc(N2CCCC(C(=O)NC3CCS(=O)(=O)C3)C2)c2c(C)c(C)oc2n1 (stereo not given)
  i | -0.45
- O=c1c(N2CCOCC2)csc2ccccc12
  i | -1.19
- O=C(Nc1cccc2nsnc12)c1nc(-n2cnnc2)ccc1Br
  i | -0.58
- CSC(=N)N
  i | 0.54
- CN(C)C(=O)c1ccc2c(c1)N(CC(=O)N1CCCC1)C(=O)CO2
  i | -0.35
- CC(C)C(=O)Oc1cccc(-n2cnnn2)c1
  i | -0.54
- Cc1noc(-c2ccc(-c3noc(-c4ccc(F)cc4)n3)cc2)n1
  i | 1.08
- CCOc1ccc(-c2ccc(SCc3nc(-c4ccc(OC)c(OC)c4)no3)nn2)cc1
  i | 0.98
- CCCCC(C(N)=O)C1=NC(C)(C)Cc2ccccc21 (stereo not given)
  i | -1.03
- CCc1nc(-c2ccc(C(=O)NCC(=O)Nc3ccc(Cl)cc3C)cc2)no1
  i | 0.05
- c1csc(-c2nc(-c3ccc(-c4csc(C5CC5)n4)cc3)no2)c1
  i | 1.47
- COc1cc(Nc2ncc3c(n2)CCN(S(=O)(=O)c2ccccc2)C3)cc(OC)c1
  i | -0.31
- CC(C)C(=O)N1CC(C)(C)c2cc(S(=O)(=O)N3CCCCC3)ccc21
  i | 1.2
- c1ccc(CN2CCC(n3c(-c4ccccc4)nc4cccnc43)CC2)cc1
  i | 0.28
- CCc1ccc(-n2ncc(-c3cc(C(=O)NC4CC4)c4ccccc4n3)c2C)cc1
  i | -1.5
- CC1(C)CC(=O)C2=C(C1)Nc1ccccc1NC2c1ccccc1F (stereo not given)
  i | 0.37
- CCOC(=O)COc1ccc(F)cc1C(=O)c1ccn2nc(-c3ccccc3)cc2n1
  i | 0.64
- O=C1c2cccnc2C(=O)N1Cc1ccc(S(=O)(=O)N2CCN(Cc3ccccc3)CC2)cc1
  i | -1.26
- CC1CCN(Cc2cc(=O)n3[nH]c(-c4ccc(C(C)(C)C)cc4)nc3n2)CC1
  i | 0.55
- COc1ccc(C2=Nc3ccccc3N(Cc3ccc(C)cc3)C(=O)C2)cc1
  i | 0.68
- Cc1ccc(N2CCn3c(nc4ccccc43)C2)cc1NC(=O)C(C)C
  i | -0.14
- CN(C)S(=O)(=O)c1ccc(-c2nnc(C(=O)NCC3CCCO3)o2)cc1 (stereo not given)
  i | -0.8
- CC1CCN=C(N)S1 (stereo not given)
  i | 0.17&-0.26
- COc1ccc(NC(=O)CCC(=O)N2CCSc3nc(C)cc(C)c32)cc1
  i | -0.05
- CCc1ccc(NC(=O)N2CCN(c3cc(-c4ccc(OC)cc4)ncn3)CC2)cc1
  i | 0.12
- Cc1ccc(N2C(=O)c3nccnc3C2=O)c(Cl)c1
  i | -2.05
- CCCn1c(=O)c2sccc2n2c(SCC(=O)NCc3ccc4c(c3)OCO4)nnc12
  i | -0.47
- COc1ccc(SCc2cc(=O)n3nc(-c4cccc(C)c4)sc3n2)cc1
  i | -0.08
- O=C(c1ccccc1F)N1CCN(c2nc(-c3ccc(Cl)cc3)no2)CC1
  i | 0.88
- Fc1ccccc1CSc1nccn2nc(-c3ccc(Br)cc3)cc12
  i | 2.67
- COc1ccc(Cl)cc1NC(=O)C1CCCN(c2nc3ccccc3nc2C(F)(F)F)C1 (stereo not given)
  i | 2.54
- Cc1cc(=O)nc2c3ccccc3n(CC(=O)N3CCC(C)CC3)n12
  i | -0.09
- COc1ccc(CCC(=O)Nc2ccc(N3CCCS3(=O)=O)cc2)cc1
  i | -1.09
- Cc1nc2c(C)cccn2c(=O)c1NC(=O)c1ccc(C(C)(C)C)cc1
  i | -0.13
- Cc1ccc(Cl)cc1NC(=O)C1CCCN(c2ccc3cc(S(=O)(=O)N4CCCC4)ccc3n2)C1 (stereo not given)
  i | -0.18

Following part:
The line under a structure holds: Choline anaer gr | Choline anaer gr early
- CCOC(=O)c1cc(NC(=O)N2CCOCC2)c(C)nc1C
  i | -0.25
- Cc1cc(F)ccc1NC(=O)CC1CCN(C(=O)c2cn(-c3ccccc3)nc2-c2ccccc2)CC1
  i | 0.32
- O=C(NC1CCCCC1)c1cnn(-c2ccc(F)cc2)c1
  i | -0.22
- COc1ccc(-c2nc(CCNC(=O)CC(C)C)cs2)cc1
  i | 0.21
- COc1cc(C(O)C(=O)O)ccc1O (stereo not given)
  i | 0.72
- COc1ccc2c(c1)c(CC(=O)O)c(C)n2Cc1ccc(Cl)cc1
  i | -0.18
- C[C@]12CC[C@@H]3c4ccc(O)cc4C[C@@H](CCCCCCCCCS(=O)CCCC(F)(F)C(F)(F)F)C3[C@@H]1CC[C@@H]2O (stereo not given in full)
  i | 0.33
- CCN(CC)c1nc2ccsc2c(=O)n1CCC(=O)NC1CCCC1
  i | 0.27
- COc1ccc(CN2CCCC2c2ccc(Cl)cc2)cc1O (stereo not given)
  i | 0.38
- CC(O)Cc1nsc(NC(=O)c2ccccc2F)n1 (stereo not given)
  i | -0.2
- O=C1COc2cc(Cl)ccc2N1Cc1nc(-c2ccccn2)no1
  i | 0.04
- O=C(Cn1ncn2nc3c(c2c1=O)CCCC3)Nc1ccccc1F
  i | -0.02
- CCOc1ccc(NC(=O)c2cc(S(=O)(=O)N3CCC(C)CC3)cn2C)cc1
  i | 0.66
- Cc1nnc(-c2ccc(S(=O)(=O)N3CCCCC3)s2)o1
  i | 0.54
- CCN(C(=O)c1cc2c(=O)n3ccccc3nc2s1)c1ccccc1
  i | -0.28
- NC(=O)c1ccc(NC(=O)c2ccc(=O)n(Cc3ccccc3Cl)c2)cc1
  i | 0.3
- COc1cc2c(cc1OC)CN(C(=O)c1ccc(N3C(=O)CCS3(=O)=O)cc1)CC2
  i | -0.71
- CCCCOc1ccc(CNC(=O)C2CCCN(C(=O)c3ccccc3F)C2)cc1 (stereo not given)
  i | -1.04
- Cc1ccc(-c2[nH]ncc2CN2CCCC2c2cc(C(C)C)on2)cc1 (stereo not given)
  i | -0.05
- COc1cc(OC)c(NC(=O)NCC(c2cccnc2)c2cn(C)c3ccccc23)cc1Cl (stereo not given)
  i | 1.27
- Cc1ccc(CN2CCCC2c2c(C)noc2C)cc1 (stereo not given)
  i | -2.22
- O=S(=O)(NCc1nc2cccnc2n1C1CC1)c1cccc2nsnc12
  i | -1.9
- Cc1cc(C2CCCN2C(=O)c2cc(-c3ccc(Br)cc3)on2)on1 (stereo not given)
  i | 1.96
- COc1ccc(OC)c(NC(=O)Cn2cnc3c(nc4n3CCCCC4)c2=O)c1
  i | -0.25
- CN1CCN(C(=O)c2nc(-c3nn(-c4ccc(F)cc4)c(=O)n(C)c3=O)no2)CC1
  i | -0.29
- CSc1cccc(NC(=O)NC2CCN(c3ccccc3)C2=O)c1 (stereo not given)
  i | 0.29
- COCCC(=O)N1CCC(c2nc(C(=O)N3CCSCC3)c(C)o2)CC1
  i | -0.81
- Cc1cc(C)c2c(n1)sc1c(=O)n(-c3ccc(C(=O)Nc4ccc(C)c(C)c4)cc3)cnc12
  i | 0.9
- O=C(CCN(CCCN1CCCC1)C(=O)c1ccc(Br)cc1)N1CCNCC1
  i | 0.41
- Cc1ccc(C2CC(=O)c3c(C)nc(N4CCc5ccccc54)nc3C2)cc1 (stereo not given)
  i | -1.2
- CCOc1ccc(NC(=O)C2Sc3nnc(-c4ccccc4)n3NC23CCCCC3)cc1 (stereo not given)
  i | -0.29
- O=C(c1cc2occc2c(Nc2ccc(Cl)cc2)n1)N1CCCC1
  i | -1.17
- CNC(=O)c1c(I)c(NC(C)=O)c(I)c(C(=O)O)c1I
  i | 0.27
- CC(C)(C)C(=O)NCC(c1cccnc1)N1CCN(c2ccccc2)CC1 (stereo not given)
  i | 0.29
- Cc1ccc2c(c1)N(C(=O)CSc1nc(-c3ccccc3)[nH]c1S(=O)(=O)c1ccccc1)CCO2
  i | 0.41
- O=C(NC1CC1)c1ccc2cn[nH]c2c1
  i | -0.66
- O=c1c2c(-c3ccc(Cl)cc3)csc2ncn1C1CCCC1
  i | 0.35
- CNC(=O)N1CCCC(c2cccc(C(=O)NC3CCCCC3)c2)C1 (stereo not given)
  i | 0.59
- CC(C)NC(=O)N1CCCC(c2cccc(C(=O)NCC3CCCO3)c2)C1 (stereo not given)
  i | 0.31
- COc1cc2[nH]c(=O)n(Cc3ccc(C(=O)Nc4ccc(F)cc4)cc3)c(=O)c2cc1OC
  i | -0.22
- Cc1nn(C(=O)CC(C)C)c(C)c1S(=O)(=O)N1CCCC1
  i | 1.51
- CCc1ccccc1NC(=O)C1CCN(c2nn3c(=O)cc(C)nc3s2)CC1
  i | 0.72
- CN1CCOc2ccc(S(=O)(=O)Nc3cccnc3)cc21
  i | -1.61
- O=c1c2c(nc3nc(Cc4ccccc4)[nH]n13)CCC2
  i | 0.16
- O=C(NCc1ccccc1)c1cnc(N2CCOCC2)nc1
  i | 0.75
- COc1ccc2cc3c(nc2c1)N(S(=O)(=O)c1cc(C)ccc1OC)CC3
  i | 0.23
- Cc1nc(S(=O)(=O)N2CCC(C(=O)N3CCN(c4cccc(Cl)c4)CC3)CC2)cn1C
  i | -0.36
- Cn1nc(C(=O)NCc2ccc(F)cc2)c2c1-c1cc(F)ccc1SC2
  i | 0.17
- C[C@H](O)C(=O)Nc1c(I)c(C(=O)NC(CO)CO)c(I)c(C(=O)NC(CO)CO)c1I
  i | -0.23
- O=C(Cn1nc2c3sc(N4CCCCC4)nc3ncn2c1=O)Nc1ccc(F)c(F)c1
  i | -0.59
- NC12CC3CC(CC(C3)C1)C2
  i | -0.01&-0.4&0
- CCn1c(C(=O)N(C)c2ccc(Br)cc2)cc2c(=O)oc3ccccc3c21
  i | -0.92
- C#CCSc1c(CCC)cnc2c1c(=O)n(C)c(=O)n2C
  i | -1.15
- O=C(Cn1c2ccccc2n2c(=O)cc(-c3ccc(Cl)cc3)nc12)Nc1cc(F)ccc1F
  i | 0.85
- Cc1nc(Nc2ccc(NC(=O)Nc3ccc4c(c3)OCCO4)cc2)cc(N2CCCC2)n1
  i | 0
- CCOC(=O)N1CCC2(CC1)N=C(c1ccccc1O)CC(c1ccc(SC)cc1)N2 (stereo not given)
  i | -0.61

Some of the entries so far, in markdown:
| smiles | Choline anaer gr | Choline anaer gr early |
| --- | --- | --- |
| COc1ccc2cc3c(nc2c1)N(S(=O)(=O)c1cc(C)ccc1OC)CC3 | i | 0.23 |
| Cc1nc(S(=O)(=O)N2CCC(C(=O)N3CCN(c4cccc(Cl)c4)CC3)CC2)cn1C | i | -0.36 |
| Cn1nc(C(=O)NCc2ccc(F)cc2)c2c1-c1cc(F)ccc1SC2 | i | 0.17 |
| C[C@H](O)C(=O)Nc1c(I)c(C(=O)NC(CO)CO)c(I)c(C(=O)NC(CO)CO)c1I | i | -0.23 |
| O=C(Cn1nc2c3sc(N4CCCCC4)nc3ncn2c1=O)Nc1ccc(F)c(F)c1 | i | -0.59 |
| NC12CC3CC(CC(C3)C1)C2 | i | -0.01&-0.4&0 |
| CCn1c(C(=O)N(C)c2ccc(Br)cc2)cc2c(=O)oc3ccccc3c21 | i | -0.92 |

Only part of the results is shown, so the mix of outcomes need not match the whole.
